Compound activity as filed in PubChem BioAssay.
Menin-MLL FL inh – menin-MLL binding inhibition, fluorescein peptide; Fluorescence polarization, fluorescein-MLL peptide displacement from menin; 290,000 tested, under 10 active; FP activity change, % at 61.4 µM; AID 1766; inconclusive = falling polarisation curve, or a change in total fluorescence; inactive = total fluorescence flat and polarisation flat or rising; no compound was filed as active; the % refers to the polarisation; negative = inhibition;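 also: % of control where 0% means no effect; inhibitors lower the polarisation; unlabelled MLL peptide was the positive control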
gsp antag – gsp mutant antagonism; gsp-mutant cells, cAMP HTRF, 30 min; control for the full effect not named in the record; Potency, µM (titrated, usually from 76.9 µM), inactives show at the highest dose activity change, negative = inhibition, actives largely listed as inhibitors; 340,000 tested, 0.4% active; active = falling curve of any shape with a large fitted effect; inconclusive = falling curve, mostly with a smaller effect; inactive = flat or rising curve; cell line not stated here;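 also: intracellular cAMP measured with PDE inhibitor Ro 20-1724 present during compound exposure; potency is read from the fitted curve at half-maximal effect; % is scaled to controls: 0 for no effect and ±100 for the full control effect; nearly all actives have a fitted effect of over 65% in size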
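Cells, 2000/well, grown 16–24 h in DMEM 10% FBS with 0.5 mg/ml G418, then compounds plus […] (300 uM addition stock), 30 min at 37C. cAMP read by HTRF (cAMP-d2 and anti-cAMP antibody-K in lysis buffer) after 30 min RT.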
D2 potentiator – potentiates the human D2 dopamine receptor allosterically; P14416; DiscoveRx D2 beta-arrestin cells, luminescence, 90 min; 100% = 57 uM dopamine signal; potentiation, % (no concentration beside the values); 360,000 tested, 0.23% active; active = potentiation of 50% or more; inconclusive = 30% to 50%; inactive = 30% or less;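 also: compound concentration not given in the record; tested on top of an EC20 dose of dopamine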
Target sequence (P14416 whole entry, looked up): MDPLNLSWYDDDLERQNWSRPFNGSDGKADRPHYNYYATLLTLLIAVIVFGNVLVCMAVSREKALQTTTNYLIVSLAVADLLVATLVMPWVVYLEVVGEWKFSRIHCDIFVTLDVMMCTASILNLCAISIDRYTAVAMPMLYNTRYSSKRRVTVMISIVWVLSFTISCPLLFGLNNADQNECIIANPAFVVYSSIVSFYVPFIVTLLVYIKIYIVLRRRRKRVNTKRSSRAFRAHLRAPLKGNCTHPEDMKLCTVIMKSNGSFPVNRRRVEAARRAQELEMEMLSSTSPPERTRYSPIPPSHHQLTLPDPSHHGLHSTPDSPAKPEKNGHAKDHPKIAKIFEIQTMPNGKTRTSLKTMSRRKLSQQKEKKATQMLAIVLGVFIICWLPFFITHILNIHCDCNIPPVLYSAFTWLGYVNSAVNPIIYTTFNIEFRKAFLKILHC
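D2 cells co-treated with compound plus 50 nM dopamine (EC20) for 90 min at 37 deg C to detect potentiation. Beta-arrestin recruitment was read as enzyme-fragment luminescence after 1 h at ambient temperature. Full response was set by 57 uM dopamine.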
ClpP mod – qHTS Assay for Activators of ClpP | ATP-dependent Clp protease proteolytic subunit (Bacillus subtilis (strain 168)), P80244 | Potency, µM (doses to about 57.5 µM), inactives show at the highest dose activity change, negative = active | purified B. subtilis ClpP, FRET peptide cleavage, 20 min | 340,000 tested, 1.9% active; active = well fitted falling curve with a large enough effect; inconclusive = small, poorly fitted or top-dose-only effect; inactive = no such curve, though single readings can be large or run the other way; also: potency is read from the fitted curve at half-maximal effect; the source files actives as falling curves though it sought activators and does not explain the sign; nearly all actives have a fitted effect of over 65% in size; many hits overshoot -100%
Target sequence (P80244 whole entry, looked up): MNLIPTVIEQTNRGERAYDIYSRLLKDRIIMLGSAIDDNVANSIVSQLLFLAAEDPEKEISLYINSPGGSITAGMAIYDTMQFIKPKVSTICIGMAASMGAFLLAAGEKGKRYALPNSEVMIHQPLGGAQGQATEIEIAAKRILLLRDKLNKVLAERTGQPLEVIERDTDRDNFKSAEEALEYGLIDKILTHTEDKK
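ClpP 10 microg/mL final, pH 8 Tris/KCl buffer with BSA, glycerol, Tween-20; compound pinned in; FRET-FV substrate; RT 20 min; Ex320/Em430; ΔFRET vs ADEP 5.8 microM, DMSO, no enzyme.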
TRPV1 potentiator – potentiators of human vanilloid receptor 1 (TRPV1); 320,000 tested, 0.02% active; AID 540277; TRPV1-expressing cells, Fluo-8 calcium influx, capsaicin EC20 potentiation; host cell line not named in the record; control for the full effect not named in the record; potentiation, % at 8.33 µM; active means potentiation above 80%; inconclusive means 30% to 80%; inactive means below 30%; also: 0% is about no effect
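Cells expressing TRPV1 were dye-loaded with Fluo-8 and read kinetically: 10 s baseline, 3 min after compound (agonist portion), then 2 min after EC20 capsaicin (allosteric enhancer portion). Calcium-bound dye fluorescence at 480/520 nm.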
Sfp PPTase inh – blocks B. subtilis Sfp PPTase activity. Q9F4F7. 310,000 tested, 3.5% active. Biochemical Sfp PPTase activity, qHTS. AID 1490. Potency, µM, for the others: max response, negative = inhibition, hits mostly inhibitors; active = well fitted inhibition curve with a large enough effect; inconclusive = small, poorly fitted or top-dose-only effect, or another doubt; inactive = no such curve, though single readings can be large or run the other way;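 also: the enzyme is Sfp with the accession as filed and its product quenches rhodamine fluorescence; potency is read from the fitted curve at half-maximal effect; 0% = enzyme reaction without inhibitor and -100% = no enzyme wells; top concentration of the series not given in the record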
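After 15 min at room temperature with compound, 15 nM Sfp received 5 uM rhodamine-CoA plus 12.5 uM BHQ-2-ybbR (50 mM Hepes pH 7.6, 10 mM MgCl2). Rate came from the fluorescence difference over 30 min, ex 525/em 598 nm.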
gsp agonist – gsp mutant agonism; gsp mutant cells, cAMP HTRF, 30 min; control for the full effect not named in the record; Potency, µM (series often up to 76.9 µM), inactives show top-dose activation (cAMP increase), actives largely listed as activators; 340,000 tested, 0.13% active; active = well fitted activation curve with a large enough effect; inconclusive = small, poorly fitted or top-dose-only effect, or another doubt; inactive = no such curve, though single readings can be large or run the other way; cell line not stated here;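 also: phosphodiesterase inhibitor Ro 20-1724 added with compounds to block cAMP breakdown; potency is read from the fitted curve at half-maximal effect; nearly all actives have a fitted effect of over 60% in size; about a fifth of the inactives were tested at one dose only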
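Cells in DMEM/10% FBS with G418 were pretreated with compounds in DMSO plus […] (300 uM stock) for 30 min at 37C. cAMP was measured by HTRF (cAMP-d2 plus anti-cAMP antibody-K) after 30 min at room temperature.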
* hit, by the source's call; u = inconclusive; x = not tested or not shown; & = joins results of further samples; [ ] = another dose, or the depositor's remark.

SMILES	Menin-MLL FL inh	gsp antag	D2 potentiator	ClpP mod	TRPV1 potentiator	Sfp PPTase inh	gsp agonist
O=C(NC(=S)Nc1cccc(NC(=S)NC(=O)c2ccccc2)c1)c1ccccc1	x	14%	-6	x	x	x	5%
Cc1ccc(S(=O)(=O)N(Cc2ccccc2)Cc2ccco2)cc1	1.8	-18%	-7	-1.7%	-4	0%	u
Cc1c(OCc2ccccc2)cccc1OCc1ccccc1	0.4[11.7 µM]	-6%	1	1.5%	8	-11%&-3%	5%
COc1cc(NC(=O)CSc2nc3c(c(=O)n(C)c(=O)n3C)n2C)cc(OC)c1	4.2	7%	-11	x	13	16%	6%[15.4 µM]
Cc1cc(NCCCN2CCOCC2)n2c(nc3ccccc32)c1C#N	3.8	-10%	9	-1.9%	x	4%	u
O=C(Nc1ccc(Cl)cc1C(F)(F)F)C(Sc1nnc(-c2cccs2)o1)c1ccccc1 (stereo not given)	5.1	-7%	-12	0.4%	-4	u	u
CCCN(CC(=O)Nc1ccc(Cl)cc1Cl)C(=O)/C=C/c1cccc([N+](=O)[O-])c1	0.5	0%	-37	1.7%	29	u	22%
CCNC(=O)C1CC(=O)N(Cc2ccc3c(c2)OCO3)C(=Nc2ccc(OCC)cc2)S1 (stereo not given)	4.4	17%	-18	0.2%	-4	3%	-16%
COCCCNC(=O)C1CCN(c2nc(C)cc(C)n2)CC1	-1.5	14%	-4	u	3	1%	0%
NC(=O)c1cc([N+](=O)[O-])ccc1NCc1cccnc1	-5.2	-24%	-9	x	5	14%	9%[15.4 µM]
N#CC1(NC(=O)COC(=O)c2ccccc2[N+](=O)[O-])CCCCC1	x	1%	0	-0.6%	10	x	-51%[inhibitor]
O=C(CN1CCN(C(=O)c2cccs2)CC1)Nc1ccc(Br)cc1	4.7	2%	-7	0.2%	-10	u	21%
Cc1cccc2c1-c1sc(C(=O)Nc3nccs3)cc1CO2	1.8	u	6	4.2%	0	-8%	-3%
CC1=NCCN1S(=O)(=O)c1ccccc1[N+](=O)[O-]	1.7	2%	3	-0.1%	3	14%	-11%
CC1(C)CC(=O)C(N=Nc2cccc(F)c2C#N)=C(O)C1	-0.3	13%	-12	-28%	-12	-8%	-10%[15.4 µM]
Cc1cc(C)c(C(=O)CSc2nnc(-c3ccccc3Br)o2)cc1C	3.5	-1%	-31	-2.0%	u	5%	-4%
CC(c1ccco1)N(C(=O)C12CC3CC(CC(C3)C1)C2)c1ccccn1 (stereo not given)	3.0	0%	-2	1.9%	-7	0%	-14%
COc1ccc(CCNC(=O)COc2ccc(S(=O)(=O)NC(C)C)cc2)cc1OC	3.7	-7%	-3	x	-2	29%	-1%
CN(C)CCN1C(=O)C(=O)/C(=C(/O)c2ccc(F)cc2)C1c1ccccc1F (stereo not given)	-1.4	8%	-3	-3.0%	-17	-4%	-18%
CC(=O)c1cccc(NC(=S)NCc2ccco2)c1	0.7	5%	16	2.6%	-9	20%	u
COC(=O)c1c(NC(=O)COC(=O)[C@@H](NS(=O)(=O)c2ccccc2)C(C)C)sc2c1CCC2	8.0	-19%	-4	-22%	-2	14%	-22%
COc1ccccc1-c1sc2cc3c(cc2c1-c1ccc(O)cc1)OCO3	x	-17%	-10	-24%	x	x	-27%
Cc1cc(C(=O)COc2ccc(F)cc2Br)c(C)n1C1CC1	x	-14%	-16	-0.6%	-11	x	10%
CCOC(=O)c1nnc(-c2ccccc2)nc1Sc1ccccc1Cl	-3.1	-5%	-47	-2.2%	-3	79µM*	-28%
CCN(CC)CCn1c2c(c(SCC(=O)Nc3cc(OC)cc(OC)c3)nc1=O)CCC2	x	0%	-20	-3.6%	2	x	0%
CC(=O)N(Cc1ccccc1)c1ccc(C(=O)O)cc1	0.8	-10%	0	0.8%	-6	14%	2%
COc1cc(CC(=O)O)c([N+](=O)[O-])cc1OC	-3.4	7%	-2	-3.5%	1	20%	-21%
CCOc1ncccc1C(=O)NCc1cccc(OC)c1	-0.3	9%	-5	0.8%	24	-4%	u
N=C1SCC(=O)N1c1ccccc1Cl	0.4	-7%	3	x	-14	8%	-26%
Cc1cc(NC(=O)c2cccc([N+](=O)[O-])c2)no1	-0.6	17%	-5	-1.4%	u	9%	3%[15.4 µM]
CCOC(=O)c1c(-c2cccc(N)c2)cn2ccccc12	1.1	10%	-4	-13%	2	-5%	13%
OCCN1CCSC1=S	x	14%	-22	0.8%	x	x	-41%[inhibitor]
Cc1ccc(NC(=O)c2snc3ccc(Cl)cc23)cc1C	1.8	-1%	-4	26%	-16	1%	u
Cc1ccc(NC(=O)CSCC(=O)Nc2nnc(C3CC3)s2)cc1	x	13%	-12	1.1%	0	x	0%[15.4 µM]
COC(=O)c1ccc(C2/C(=C(\O)c3ccc(OC)c(C)c3)C(=O)C(=O)N2c2cc(C)on2)cc1 (stereo not given)	2.4	-2%	-31	-15%	28	0%	u
Cc1ccc(NC(=O)C(=O)N2CCCC2)cc1Cl	8.0	-14%	3	0.5%	-42	-5%	-3%
Cc1cc(C)nc(Nc2ccc(O)cc2)n1	2.8	2%	2	1.5%	u	10%	25%
CCOc1ccc(S(=O)(=O)N2CCN(C(=O)Cc3ccc(S(=O)(=O)N4CCOCC4)s3)CC2)cc1	x	-4%	-5	x	3	x	-27%[15.4 µM]
CCOc1ccccc1-c1nc(C(N)=O)c2[nH]c(=O)n(-c3cccc(C)c3)c2n1	6.6	1%	-20	u	-4	-7%	-10%
COc1cc(NS(=O)(=O)c2ccc(C)cc2)c2ncccc2c1	3.9&-2.3	-9%	-32	-7.4%	6	19%&-8%	-8%
Cc1ccc2nc(SC(C)C(=O)NC3CCCC3)[nH]c2c1 (stereo not given)	x	-2%	-9	x	x	x	13%
Cc1ccc(Nc2ccc(C(=O)O)cc2[N+](=O)[O-])cc1	-3.5	u	-13	0.5%	5	7%	14%[15.4 µM]
O=C(CSc1nncn1-c1cccnc1)Nc1ccccc1C(F)(F)F	1.8	6%	-5	x	-2	16%	-13%
CCN1CCCc2cc(CN(CCN3CCOCC3)C(=S)Nc3cc(F)cc(F)c3)ccc21	-0.3	-2%	-15	0.6%	-10	12%	1%
Cc1cc(C)c2c(n1)sc1c(O)cc(=O)[nH]c12	u	4%	-7	32µM*	2	u	3%
COc1ccccc1C(=O)NCCC(=O)N1CCN(S(=O)(=O)c2ccccc2C(F)(F)F)CC1	x	0%	14	2.5%	11	x	30%
O=C(NC(Cc1c[nH]c2ccccc12)C(=O)N/N=C/c1ccc(Cl)cc1)c1cccs1 (stereo not given)	-1.8	-16%	-3	x	6	16%	7%[15.4 µM]
Cc1ccc2[nH]cc(CCNC(=O)CN3C(=O)c4ccccc4C3=O)c2c1	8.3	2%	2	0.3%	7	-10%	-26%
CCCSc1ccc([C@@H]2[C@@H]3C(=O)N(CC)C(=O)[C@@H]3[C@]3(C(=O)OC)CCCCN23)cc1OC	x	-9%	-10	-2.8%	x	x	-27%
COc1cccc(-c2nc(CS(=O)(=O)CC(=O)NC3CCCCCC3)c(C)o2)c1	-7.5	-26%	-17	-14%	-16	10%	u
Cc1cccc(Cn2cc(SCC(=O)Nc3nccs3)c3ccccc32)c1	2.8	-4%	-1	3.6%	u	u	-33%[inhibitor]
CCOc1nc(C)ccc1-c1noc(CC)n1	-0.9	4%	-10	-5.0%	-9	-4%	14%
CC(C)OC(=O)CC(=O)CSc1nc(-c2ccc(F)cc2)cc(-c2ccccc2)c1C#N	23	-18%	-3	x	4	3%	4%
COc1ccccc1CC(=O)N1CCN(c2cccc(C(F)(F)F)c2)CC1	2.3	-10%	-6	-1.4%	-9	3%	-8%
CN1CCc2c(sc(NC(=O)c3ccc(S(=O)(=O)N4CCCCCC4)cc3)c2C(N)=O)C1	x	-2%	-6	-2.6%	6	-11%	1%[15.4 µM]
Cn1c(=O)c2c(ncn2CC(=O)OCC(=O)NC2CCCc3ccccc32)n(C)c1=O (stereo not given)	-0.4	11%	-4	-0.1%	-5	8%	12%
COc1ccc(NC(=O)COC(=O)c2cc(Cl)ccc2O)cc1S(=O)(=O)N1CCCCC1	x	2%	-15	-7.0%	-8	x	10%
O=c1c2[nH]cnc2n(-c2cccc(Br)c2)c(=O)n1Cc1ccccc1	2.7	11%	-19	-3.4%	25	-3%	-5%
COc1cc(CNC(=O)c2ccc3c(c2)S(=O)(=O)c2ccccc2C3=O)cc(OC)c1	x	4%	20	-0.4%	x	x	2%
O=C(c1ccc2c3c(cccc13)CC2)N1CCN(c2ncccn2)CC1	x	9%	-3	-9.3%	x	x	10%

3 entries from above, with two lines to a compound:
Order of results – Menin-MLL FL inh	gsp antag	D2 potentiator	ClpP mod	TRPV1 potentiator	Sfp PPTase inh	gsp agonist
- CC(C)OC(=O)CC(=O)CSc1nc(-c2ccc(F)cc2)cc(-c2ccccc2)c1C#N
 : 23	-18%	-3	x	4	3%	4%
- COc1ccccc1CC(=O)N1CCN(c2cccc(C(F)(F)F)c2)CC1
 : 2.3	-10%	-6	-1.4%	-9	3%	-8%
- CN1CCc2c(sc(NC(=O)c3ccc(S(=O)(=O)N4CCCCCC4)cc3)c2C(N)=O)C1
 : x	-2%	-6	-2.6%	6	-11%	1%[15.4 µM]

(cont.)
SMILES	Menin-MLL FL inh	gsp antag	D2 potentiator	ClpP mod	TRPV1 potentiator	Sfp PPTase inh	gsp agonist
COC(=O)c1cccc(NC(=O)c2cccc(N3C(=O)CCC3=O)c2)c1	x	8%	7	2.1%	15	x	0%
CN(C)Cc1ccccc1CCc1ccccc1	x	-3%	-9	x	x	x	8%[15.4 µM]
COc1ccc(NC(=O)CSc2n[nH]c(-c3ccco3)n2)cc1	1.3	-23%	1	0.4%	6	-18%	4%
C=CCOc1ccc(CNCc2cccnc2)cc1	5.7	20%	-17	-0.8%	1	0%	11%[15.4 µM]
COc1cccc(C(=O)NCC(=O)N/N=C(C)\C=C\c2ccccc2)c1	0.9	0%	-7	x	2	8%	1%[15.4 µM]
CCc1ccccc1NC(=O)c1cnn(-c2ccccc2)c1C	-6.1	3%	-7	0.0%	-36	5%	-4%[15.4 µM]
NC(=O)COc1ccc(S(=O)(=O)N2CCCC2)cc1	x	x	-7	0.5%	x	x	-15%
